MLL AF4-AF9 inh = inhibitors of AF4 peptide binding to AF9, primary screen, biochemical, AlphaScreen, biotin-AF4 peptide, FLAG-AF9, single point; inhibition, % at 10 µM; actives 0.47% (n = 350,000); AID 651704, 2012;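 active = every replicate reaching a set inhibition limit, whatever the replicate mean, cut at about 25% in these data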;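 note: 0% = plate neutral control median and 100% = total signal loss; the record names both 10 and 1 µM as test concentration; the first replicate is given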
Target sequence (P42568 whole entry, looked up): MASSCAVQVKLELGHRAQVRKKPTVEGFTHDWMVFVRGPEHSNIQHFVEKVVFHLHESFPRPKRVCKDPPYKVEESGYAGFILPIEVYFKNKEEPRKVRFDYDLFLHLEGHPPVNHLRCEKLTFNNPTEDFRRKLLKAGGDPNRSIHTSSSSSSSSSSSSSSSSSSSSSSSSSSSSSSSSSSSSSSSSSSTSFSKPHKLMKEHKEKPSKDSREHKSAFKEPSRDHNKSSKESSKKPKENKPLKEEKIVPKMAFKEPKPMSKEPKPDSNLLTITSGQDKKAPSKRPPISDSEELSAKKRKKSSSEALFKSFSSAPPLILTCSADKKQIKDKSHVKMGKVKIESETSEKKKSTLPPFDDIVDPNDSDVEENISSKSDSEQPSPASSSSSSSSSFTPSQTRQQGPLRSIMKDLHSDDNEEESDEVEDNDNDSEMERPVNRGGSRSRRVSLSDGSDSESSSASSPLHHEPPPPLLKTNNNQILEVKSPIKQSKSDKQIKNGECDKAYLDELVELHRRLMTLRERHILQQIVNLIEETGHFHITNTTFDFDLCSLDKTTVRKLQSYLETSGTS
* marks the source's active call; other numbers are inactive results; & = joins results of further samples. Only part of the results is shown; rates above refer to the full screens.

SMILES	MLL AF4-AF9 inh
COc1cc(C(=O)OCC(=O)N2CCN(S(=O)(=O)c3ccc(C)cc3C)CC2)c([N+](=O)[O-])cc1OC	2.6
CN(C)C(=O)c1ccc(-c2ccc([C@H]3[C@H](CO)N4CCCCN(S(C)(=O)=O)C[C@@H]34)cc2)cc1	3.2
C[C@@H]1CN([C@H](C)CO)C(=O)c2cc(N(C)C)ccc2O[C@H]1CN(C)Cc1ccc(C(=O)Nc2ccccc2N)cc1	-0.1
CCCNC(=O)[C@H]1[C@H](CO)[C@H]2Cn3c(ccc(-c4ccccc4)c3=O)[C@H]2N1C(=O)C1CC1	-3.9
CCC(=O)N[C@H]1CC[C@@H](CCn2cc(C3CC3)nn2)O[C@@H]1CO	-2.6&-1.6
C[C@@H]1CCCCO[C@@H](CN(C)S(C)(=O)=O)[C@H](C)CN([C@@H](C)CO)C(=O)c2cc(NC(=O)Nc3ccc4c(c3)OCO4)ccc2O1	-2.7
CCS(=O)(=O)Nc1ccc2c(c1)C(=O)N(C)[C@H]1CC[C@H](CC(=O)Nc3ccc(Cl)cc3)O[C@@H]1CO2	0.1
COc1ccccc1-c1ccc2c(c1)O[C@H](CN(C)C)[C@H](C)CN([C@@H](C)CO)S2(=O)=O	-2.9
CCCNC(=O)N1[C@@H]2Cn3c(cccc3=O)[C@H]1[C@@H](C(=O)NCC(F)(F)F)[C@@H]2CO	-3.7
COc1ccc(S(=O)(=O)Nc2cccc3c2O[C@H](CN(C)S(=O)(=O)c2ccc(Cl)cc2)[C@@H](C)CN([C@@H](C)CO)C3=O)cc1	-0.6
COc1ccc(S(=O)(=O)N(C)C[C@@H]2Oc3ccc(NC(=O)C4CCCCC4)cc3CC(=O)N([C@H](C)CO)C[C@@H]2C)cc1	2.5
C[C@H]1CCCCO[C@@H](CN(C)Cc2ccncc2)[C@@H](C)CN([C@@H](C)CO)C(=O)c2cc(NC(=O)Nc3ccccc3)ccc2O1	7.4
CCC(=O)Nc1ccc2c(c1)C(=O)N(C)C[C@@H](OC)[C@@H](C)CN(CCc1ccccc1)[C@@H](C)CO2	-0.3
COCC(=O)N1C[C@@H]2[C@H](c3ccccc31)[C@@H](CO)N2Cc1ccccc1F	-17.4
O=S(=O)(c1ccc(F)cc1)N1CCCCN2[C@H](CO)[C@H](c3ccc(-c4cncnc4)cc3)[C@H]2C1	-2.4
C[C@@H]1CN([C@@H](C)CO)C(=O)Cc2cc(NC(=O)Cc3cn(C)c4ccccc34)ccc2O[C@H]1CN(C)C(=O)Nc1cccc2ccccc12	0.9
CSCCC1NC(=O)C(C(C)=NNC(N)=O)=C1O (centres undefined)	-0.7
C[C@@H]1CN([C@@H](C)CO)C(=O)Cc2cc(NS(=O)(=O)c3ccccc3)ccc2O[C@@H]1CN(C)Cc1ccc(C(=O)Nc2ccccc2N)cc1	-2.4
Cc1noc(C)c1NC(=O)N(C)C[C@H]1Oc2ccc(NS(=O)(=O)c3cn(C)cn3)cc2C(=O)N([C@@H](C)CO)C[C@@H]1C	-3.1
Cc1ccc2cc(NC(=O)C3(C)CCN3CC(C)C)ccc2n1 (centres undefined)	-1.2
CCOC(=O)C1(C)CCN1C(=O)c1ccc(OC)cc1 (centres undefined)	0.2
COCC(=O)N(C)C[C@H]1Oc2cc(-c3ccc(C)cc3)ccc2S(=O)(=O)N([C@@H](C)CO)C[C@H]1C	-2.0
C[C@H]1CN([C@@H](C)CO)C(=O)c2cc(NC(=O)Nc3ccccc3)ccc2O[C@H]1CN(C)S(=O)(=O)c1ccccc1	3.6
C[C@@H]1CN([C@@H](C)CO)C(=O)c2cccc(NS(=O)(=O)c3ccc(Cl)cc3)c2O[C@@H]1CN(C)S(C)(=O)=O	-1.4
COc1ccccc1S(=O)(=O)N[C@@H]1CC[C@H](CC(=O)N2CCCCC2)O[C@H]1CO	-15.6

Some of these compounds in order of the MLL AF4-AF9 inh value, high to low:
SMILES	MLL AF4-AF9 inh
C[C@H]1CCCCO[C@@H](CN(C)Cc2ccncc2)[C@@H](C)CN([C@@H](C)CO)C(=O)c2cc(NC(=O)Nc3ccccc3)ccc2O1	7.4
CCOC(=O)C1(C)CCN1C(=O)c1ccc(OC)cc1 (centres undefined)	0.2
COCC(=O)N(C)C[C@H]1Oc2cc(-c3ccc(C)cc3)ccc2S(=O)(=O)N([C@@H](C)CO)C[C@H]1C	-2.0

Returning to the listing, starting 3 compounds before the break.
SMILES	MLL AF4-AF9 inh
C[C@H]1CN([C@@H](C)CO)C(=O)c2cc(NC(=O)Nc3ccccc3)ccc2O[C@H]1CN(C)S(=O)(=O)c1ccccc1	3.6
C[C@@H]1CN([C@@H](C)CO)C(=O)c2cccc(NS(=O)(=O)c3ccc(Cl)cc3)c2O[C@@H]1CN(C)S(C)(=O)=O	-1.4
COc1ccccc1S(=O)(=O)N[C@@H]1CC[C@H](CC(=O)N2CCCCC2)O[C@H]1CO	-15.6
Cc1noc(C)c1S(=O)(=O)Nc1ccc2c(c1)C(=O)N([C@H](C)CO)C[C@@H](C)[C@H](CN(C)S(=O)(=O)c1ccc(Cl)cc1)OCCCC[C@@H](C)O2	7.4
COc1ccc(NC(=O)N(C)C[C@H]2Oc3cc(C#CCC(C)C)ccc3S(=O)(=O)N([C@@H](C)CO)C[C@@H]2C)cc1	3.5
COc1ccccc1S(=O)(=O)N[C@H]1C=C[C@H](CC(=O)NCc2cc(F)cc(F)c2)O[C@H]1CO	-3.1
C[C@@H]1CN([C@@H](C)CO)S(=O)(=O)c2ccc(C3=CCCC3)cc2O[C@H]1CN(C)Cc1ccccc1F	-8.7
CO[C@@H]1CN(C)C(=O)c2cc(NC(=O)C3CCOCC3)ccc2OC[C@H](C)N(C(C)=O)C[C@H]1C	-0.1
O=C(Cc1ccccc1)N1C[C@@H]2[C@H](c3ccccc31)[C@@H](CO)N2C(=O)c1ccc(F)cc1	2.2
CC(C)N(C[C@H]1[C@@H](c2ccccc2)[C@H](CO)N1S(C)(=O)=O)C(=O)CN(C)C	-1.8
C[C@H](CO)N1C[C@H](C)[C@@H](CN(C)C(=O)Nc2ccc(F)cc2)Oc2ccc(NC(=O)CCN3CCOCC3)cc2CC1=O	-12.8
Cc1ccc(S(=O)(=O)NC(=O)C2(C)CCN2C(=O)c2ccc(C(F)(F)F)nc2C)cc1 (centres undefined)	-2.6
COCC(=O)Nc1ccc2c(c1)[C@H]1C[C@@H](CC(=O)NC3CCCC3)O[C@@H](CO)[C@H]1O2	-1.6
COc1ccc(S(=O)(=O)N(C)C[C@@H]2Oc3c(NC(=O)C4CCCCC4)cccc3C(=O)N([C@H](C)CO)C[C@@H]2C)cc1	-0.7
CC(=O)NC(c1ccccc1)c1nc(-c2cccnc2)cs1 (centres undefined)	-10.0
C[C@@H]1CN([C@H](C)CO)S(=O)(=O)c2ccc(Br)cc2O[C@H]1CN(C)Cc1ccccn1	-0.3
CO[C@H]1CN(C)C(=O)c2cc(NC(=O)c3cccc(F)c3)ccc2OC[C@@H](C)NC[C@@H]1C	-11.4
CC(=O)N1[C@@H](CO)[C@H](c2ccccc2)[C@@H]1CN(C(=O)c1ccc(F)cc1)C(C)C	-1.3
COc1cccc(NC(=O)Nc2ccc3c(c2)C(=O)N(C)C[C@H](OC)[C@H](C)CN[C@@H](C)CO3)c1	7.9
N#C[C@H]1[C@@H](c2ccc(-c3ccc(F)cc3)cc2)[C@H](CO)N1c1nc(-c2ccccc2)cs1	-0.8
COc1ccccc1NC(=O)N(C)C[C@@H]1Oc2ncc(C#CCN(C)C)cc2C(=O)N([C@H](C)CO)C[C@H]1C	-8.6
CCC(=O)N1[C@H](CO)[C@@H]2c3ccccc3N(C(=O)c3ccncc3)C[C@@H]21	-5.5
CCOC1=C2[C@@H](CN(S(=O)(=O)c3ccccc3)[C@H]2c2ccccc2)[C@H]2C(=O)N(c3ccccc3)C(=O)[C@H]2C1	-0.1
C[C@@H]1CCCCO[C@H](CN(C)Cc2ccccc2)[C@@H](C)CN([C@@H](C)CO)C(=O)c2cc(NC(=O)Nc3ccc(C(F)(F)F)cc3)ccc2O1	-0.4
CCCNC(=O)C[C@H]1CC[C@H]2[C@@H](COc3ccc(NC(=O)CCC)cc3C(=O)N2C)O1	-0.6
CCCNC(=O)N1CC2(CN(C(=O)Nc3cccc(F)c3)C2)c2c(n(C)c3cc(OC)ccc23)[C@H]1CO	1.3
CC(=O)NC(c1cccc(F)c1)c1nc(-c2ccccc2C)cs1 (centres undefined)	-0.7
COc1ccc(NC(=O)N(C)C[C@H]2Oc3ncc(-c4ccc(C#N)cc4)cc3C(=O)N([C@H](C)CO)C[C@@H]2C)cc1	-0.6
SMILES	MLL AF4-AF9 inh
C[C@@H]1CN([C@@H](C)CO)C(=O)CCCn2nncc2CO[C@@H]1CN(C)C(=O)c1ccccc1	0.5&-1.0&0.3
COCC(=O)N1[C@H](C#N)[C@H](c2ccccc2C2=CCCCC2)[C@H]1CO	-0.5
Cc1noc(C)c1S(=O)(=O)Nc1ccc2c(c1)CC(=O)N([C@@H](C)CO)C[C@@H](C)[C@H](CN(C)Cc1ccc(C(F)(F)F)cc1)O2	3.8
C[C@@H]1CCCCO[C@H](CN(C)Cc2ccc(C(F)(F)F)cc2)[C@@H](C)CN([C@H](C)CO)C(=O)c2cc(NC(=O)CCC(F)(F)F)ccc2O1	0.4
C[C@@H]1CN([C@@H](C)CO)C(=O)c2cc(N(C)C)ccc2O[C@H]1CN(C)S(=O)(=O)c1ccccc1	2.7
Cc1nc2c(OCc3cccc(Cl)c3)cccn2c1N(C)Cc1cccs1	2.9
CC(C)NC(=O)Nc1ccc2c(c1)C(=O)N([C@@H](C)CO)C[C@H](C)[C@@H](CN(C)C(=O)c1ccccc1)OCCCC[C@@H](C)O2	-2.9
CCCNC(=O)C[C@@H]1CC[C@@H]2[C@@H](COc3ccc(NC(=O)c4ccccc4)cc3C(=O)N2C)O1	-0.7
C[C@@H]1CN([C@@H](C)CO)C(=O)c2cc(C#CCC3CCCC3)cnc2O[C@H]1CN(C)C(=O)CC1CC1	-1.8
COc1ccc(NC(=O)N(C)C[C@H]2OCc3cnnn3CCCC(=O)N([C@@H](C)CO)C[C@@H]2C)c(OC)c1	-0.6
COc1ccc(C#Cc2ccc3c(c2)[C@H]2[C@H](CCN2C(=O)C2CCC2)[C@@H](CO)N3)cc1	17.8
CCN1[C@@H]2c3cccc(=O)n3C[C@H]1[C@H](CO)[C@H]2C(=O)NC1Cc2ccccc2C1	-0.9
COc1cccc(S(=O)(=O)N(C)C[C@@H]2Oc3ncc(-c4cccc(C(=O)N(C)C)c4)cc3C(=O)N([C@H](C)CO)C[C@H]2C)c1	-2.5
CCc1nc2c(OCc3ccc(F)cc3)cccn2c1N(C)C(=O)C(C)C	1.8
Cc1nn2c(=O)cc(COC(=O)c3c(F)cccc3Cl)nc2s1	-1.0
CN1C(=O)c2cc(NC(=O)C3CCOCC3)ccc2OC[C@H]2O[C@H](CC(=O)NC3CCCC3)CC[C@H]21	1.8
CCC(=O)N1[C@@H]2c3cccc(=O)n3C[C@@H]2[C@@H](CO)[C@@H]1C(=O)NC1CCC1	-1.1
COc1ccc(S(=O)(=O)N(C)C[C@H]2OCc3ccccc3-c3c(n(C)c4ccccc34)C(=O)N([C@@H](C)CO)C[C@@H]2C)cc1	1.5
O=C(Cc1ccccc1)N1CC(=O)N2[C@H](CO)[C@@H](c3ccc(Br)cc3)[C@@H]2C1	-2.2
CCCCN(C(=O)c1ccc2c(c1)S(=O)(=O)N=C1CCCCCN12)c1c(N)n(CC(C)C)c(=O)[nH]c1=O	0.7
C[C@@H]1CN([C@H](C)CO)C(=O)c2cc(NC(=O)NC3CCCCC3)ccc2O[C@@H]1CN(C)S(=O)(=O)c1cn(C)cn1	-1.7
C[C@H](CO)N1C[C@H](C)[C@H](CN(C)S(=O)(=O)c2cccs2)OCCCC[C@H](C)Oc2ccc(NC(=O)CCCN(C)C)cc2C1=O	4.3
O=C(NCc1ccc(F)cc1)[C@@H]1N[C@@H]2c3ccc(-c4ccccc4)c(=O)n3C[C@@H]2[C@H]1CO	3.0
CCCNC(=O)N1CC2(CCN(C(=O)c3cnccn3)CC2)c2c([nH]c3cc(OC)ccc23)[C@H]1CO	-0.8
CCCNC(=O)N(C)C[C@H]1N[C@@H](CO)[C@@H]1c1ccc(C2=CCCCC2)cc1	6.9
SMILES	MLL AF4-AF9 inh
C/C=C/c1ccc([C@H]2[C@@H](CN(C)C(=O)C3CC3)N(C(=O)C3CC3)[C@H]2CO)cc1	-0.4
CC(C)C(=O)N1CCCC1(C)C(=O)Nc1ccc(F)cc1 (centres undefined)	0.0
CO[C@H]1CN(C)C(=O)c2ccc(NC(C)=O)cc2OC[C@H](C)N(C(=O)CN2CCOCC2)C[C@H]1C	-0.3
C[C@H](CO)N1C[C@H](C)[C@H](CN(C)C(=O)Nc2cccc3ccccc23)Oc2ccc(NC(=O)Cc3ccccc3)cc2C1=O	-5.2
CO[C@@H]1CN(C)C(=O)c2cc(NC(C)=O)ccc2OC[C@@H](C)N(CCc2ccccc2)C[C@@H]1C	4.0
O=C(NCc1ccc(F)cc1)[C@@H]1[C@@H](CO)[C@@H]2Cn3c(cccc3=O)[C@H]1N2Cc1cccnc1	-1.4
O=C(C[C@H]1CC[C@H]2[C@@H](COC[C@H](O)CN2Cc2nccs2)O1)NCc1ccc(Cl)cc1	-1.0
Cc1ccccc1S(=O)(=O)NCC[C@@H]1CC[C@H](NC(=O)Nc2cccc(Cl)c2)[C@@H](CO)O1	2.8
C[C@@H]1CCCCO[C@@H](CN(C)C)[C@H](C)CN([C@@H](C)CO)C(=O)c2cc(NC(=O)c3ccccc3)ccc2O1	-2.5

Two records drawn at random from the list so far:
SMILES	MLL AF4-AF9 inh
C/C=C/c1ccc([C@H]2[C@@H](CN(C)C(=O)C3CC3)N(C(=O)C3CC3)[C@H]2CO)cc1	-0.4
O=C(NCc1ccc(F)cc1)[C@@H]1[C@@H](CO)[C@@H]2Cn3c(cccc3=O)[C@H]1N2Cc1cccnc1	-1.4

Screening data as filed in PubChem BioAssay.
